Screens: PubChem BioAssay, National Center for Advancing Translational Sciences (NCATS)
TRPML1 blocker: inhibitors of human TRPML1 channel; Q9GZU1; TRPML1-inducible cells, Ca2+ dye fluorescence, FDSS; hits give low values; inhibition of EC80 agonist-evoked calcium signal; activity change, negative = inhibition, % (concentration not given with the values); actives 0.02% (n = 390,000); AID 624415; in the data active means activity change below about -50%; inconclusive means about -30% to -50%; inactive means above about -30%;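 note: stimulus is agonist 54-4 at its EC80 concentration; % is set by controls: 0 for no effect and ±100 for the full control effect; compound concentration not given in the record; the text of the record puts the active cut at -80%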
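TRPML1-DL cells, Tet-induced overnight (~16 h, 37 °C) at 1,500 cells/well, were loaded with Ca8 no-wash dye plus quencher for 45-90 min at room temperature. Compounds were pinned during FDSS kinetic reading; agonist 54-4 at EC80 (4 uM final) then added.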
D2 PAM: human D2 receptor positive allosteric modulation | actives 0.23% (n = 360,000) | DiscoveRx D2 beta-arrestin cells, luminescence, 90 min; 100% = 57 uM dopamine signal | P14416 | AID 624464 | potentiation, % (no concentration beside the values); active = potentiation of 50% or more; inconclusive = 30% to 50%; inactive = 30% or less;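 note: compound concentration not given in the record; tested on top of an EC20 dose of dopamine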
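D2 cells co-treated with compound plus 50 nM dopamine (EC20) for 90 min at 37 deg C to detect potentiation. Beta-arrestin recruitment was read as enzyme-fragment luminescence after 1 h at ambient temperature. Full response was set by 57 uM dopamine.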
Six1-Eya2 blk: inhibitors of human Six1/Eya2 interaction; AlphaScreen GST-Six1/His-Eya2 binding, biochemical; hits give low values; control for the full effect not named in the record; AID 651725; actives 0.56% (n = 360,000); activity change, % (no concentration beside the values); in the data active = activity change below about -65%; inconclusive = about -30% to -65%; inactive = above about -30%; note: % is set by controls: 0 for no effect and ±100 for the full control effect; compound concentration not given in the record
Target sequence (O00167 whole entry, looked up): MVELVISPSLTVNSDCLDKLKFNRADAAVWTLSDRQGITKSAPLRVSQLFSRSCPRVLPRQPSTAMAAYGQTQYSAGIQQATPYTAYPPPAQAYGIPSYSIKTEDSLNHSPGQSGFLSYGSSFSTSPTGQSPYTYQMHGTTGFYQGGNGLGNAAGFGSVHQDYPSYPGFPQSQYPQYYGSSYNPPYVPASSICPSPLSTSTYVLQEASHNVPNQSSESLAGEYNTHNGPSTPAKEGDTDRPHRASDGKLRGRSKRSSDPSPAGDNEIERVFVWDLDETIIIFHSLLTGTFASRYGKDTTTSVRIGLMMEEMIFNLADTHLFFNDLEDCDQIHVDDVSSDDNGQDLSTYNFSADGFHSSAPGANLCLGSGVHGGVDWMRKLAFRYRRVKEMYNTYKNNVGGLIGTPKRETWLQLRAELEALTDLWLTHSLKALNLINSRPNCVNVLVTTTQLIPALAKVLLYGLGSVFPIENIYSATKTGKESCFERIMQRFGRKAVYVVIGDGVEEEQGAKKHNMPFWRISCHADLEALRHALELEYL
Target sequence (Q15475 whole entry, looked up): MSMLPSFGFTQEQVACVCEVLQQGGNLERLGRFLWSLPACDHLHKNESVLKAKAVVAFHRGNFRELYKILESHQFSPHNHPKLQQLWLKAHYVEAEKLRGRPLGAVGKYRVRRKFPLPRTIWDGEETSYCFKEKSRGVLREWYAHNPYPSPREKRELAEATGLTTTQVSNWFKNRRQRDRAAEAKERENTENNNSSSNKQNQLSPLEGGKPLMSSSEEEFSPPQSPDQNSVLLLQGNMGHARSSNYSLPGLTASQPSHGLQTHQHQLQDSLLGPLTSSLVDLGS
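Compounds are tested against tagged Six1 and Eya2 proteins bridged by glutathione donor and nickel acceptor beads; after a one-hour incubation at 37 °C without light, AlphaScreen emission is recorded.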
PINK1 expr mod: changes PINK1 expression. PINK1 immunofluorescence, high-content cytometry, 24 h. actives 0.2% (n = 410,000). Potency, µM (top dose mostly 76.6 µM), inactives show top-dose activation (PINK1 increase), most hits filed as activators; active = well fitted activation curve with a large enough effect; inconclusive = small, poorly fitted or top-dose-only effect; inactive = flat fitted curve, though single readings scatter; cell line not stated here;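 note: potency is the fitted concentration of half-maximal effect; % of control where 0% means no effect; nearly all actives have a fitted effect of over 65% in size; a mitochondrial uncoupler was the plate control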
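PINK1 protein, normally rapidly degraded, was detected by immunofluorescence after 24 hour compound treatment of a stable cell line. Titration data (5 concentrations) came from laser-scanning cytometry, with CCCP-treated wells as controls.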
D2 agonist: activates the human D2 dopamine receptor; activation, % (test concentration not listed); DiscoveRx PathHunter D2 beta-arrestin, luminescence, 90 min; 100% = 57 uM dopamine signal; actives 0.084% (n = 360,000); in the data active = activation above about 40%; inconclusive = about 15% to 40%; inactive = below about 15%; note: compound concentration not given in the record; the text of the record calls up to 30% inactive
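Agonist mode: compounds alone added to overnight-plated D2 PathHunter cells for 90 min at 37 C, with 57 uM final dopamine (EC100) defining full response. Beta-arrestin recruitment detected by chemiluminescent reagent, read after 1 h at ambient temperature.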
TRPML1 ag: activates the human TRPML1 channel; Q9GZU1; TRPML1-expressing cells, Ca2+ dye fluorescence, FDSS; host cell line not named in the record; reference of the full effect not given here; activation, % (concentration not given with the values); actives 0.12% (n = 410,000); AID 624414; in the data active = activation above about 50%; inconclusive = about 30% to 50%; inactive = below about 30%; note: 0% is about no effect; the text of the record puts the active cut at 80%
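Agonist activity was taken from a 110 s kinetic Ca2+ dye read on the FDSS after pinning compounds onto TRPML1-DL cells. The cells were seeded at 1,500/well with Tet inducer, incubated about 16 h, then dye-loaded at room temperature.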
An asterisk follows results filed as active; ? = inconclusive; . = not tested or not shown; [ ] = another dose, or the depositor's remark.

SMILES | TRPML1 blocker | D2 PAM | Six1-Eya2 blk | PINK1 expr mod | D2 agonist | TRPML1 ag
COC(=O)c1ccccc1NC(=O)c1ccc(NC(=O)C2CCCO2)cc1 (stereo not given) | 1 | ? | 0 | 0.3% | 4.7 | 0.9
CC(=O)Nc1ccc(NC(=O)C2CC(=O)N=C(N)S2)cc1 (stereo not given) | -2 | -10 | -1 | 2.1% | 0.4 | 1.4
COC(=O)c1c(C)[nH]c(C(=O)C(C)OC(=O)C2CC(=O)N(CCc3ccccc3)C2)c1C (stereo not given) | -3 | -4 | -14 | 0.5% | 5.5 | 2.4
O=C(COc1ccccc1Cl)NNC(=O)c1ccc(-n2cncn2)c([N+](=O)[O-])c1 | 0 | -3 | 0 | 0.6% | -2.2 | -0.5
COc1cccc2cc(C(=O)N(Cc3cccs3)CC3CCCO3)c(=O)oc12 (stereo not given) | -9 | -9 | 0 | -1.1% | -3.9 | 4.1
CCCC(=O)Nc1cc(C)c(NC(=O)C23CC4CC(CC(C4)C2)C3)cn1 | 13 | -6 | -12 | -1.8% | -0.7 | 1.7
CN(C)S(=O)(=O)c1cccc(CNCC2COc3ccccc3O2)c1 (stereo not given) | -16 | -8 | -4 | -1.6% | 12 | 1.5
CCOC(=O)c1sc(Nc2ccc(C)cc2C)nc1C | 7 | -21 | -6 | 2.8% | 0.0 | -0.6
COc1ccc(CCNC(=O)CSc2nc3scc(-c4ccccc4)c3c(=O)[nH]2)cc1 | 4 | -25 | -1 | 5.3% | -1.3 | 0.0
CCn1ncc(C(=O)Nc2ccc(F)cc2)c1C | -1 | -4 | 2 | 1.6% | 3.1 | 0.0
CC1CN(CC(=O)Nc2ccccc2Sc2ccccc2)CC(C)O1 (stereo not given) | -15 | -17 | -4 | 3.5% | 0.2 | 0.1
COCCN(C(=S)Nc1ccc(Cl)cc1OC)C1CCN(C(C)=O)CC1 | -10 | -3 | -4 | 0.2% | 3.7 | 0.0
Cc1onc(C(=O)NC(C)c2ccccc2)c1[N+](=O)[O-] (stereo not given) | -8 | -10 | 0 | 1.1% | -4.1 | -0.3
O=C(NCC(O)c1ccccc1)c1cccs1 (stereo not given) | 5 | -10 | -1 | 0.6% | -2.8 | 0.7
COc1cccc(C(c2nnnn2-c2c(C)cccc2C)N2CCN(C/C=C/c3ccccc3)CC2)c1OC (stereo not given) | -14 | -15 | -28 | 0.0% | -5.0 | 1.3
CCN1CC=C2C(C#N)=C(N)C(C#N)(C#N)[C@H](c3cccc(OC)c3OC)[C@H]2C1 | -6 | -11 | 0 | ? | 2.2 | 5.8
COc1ccc(C2N(c3cc(Cl)ccc3OC)C(=O)C3CCCN32)cc1 (stereo not given) | -9 | -7 | 4 | 0.9% | -2.6 | 0.5
COc1cccc(-n2c(Cc3cc(=O)[nH]c(=O)[nH]3)nnc2SCC(=O)N2CCCCCC2)c1 | -7 | 2 | 0 | 0.3% | -0.7 | 0.1
COc1ccccc1NC(=O)CN1C(=O)CSc2ccc(S(=O)(=O)N3CCCC3)cc21 | -1 | . | . | 0.3% | . | 0.4
COc1ccc(N2CCN(C(=O)c3c4c(nc5ccccc35)C(=O)N(C3CCCCC3)C4)CC2)cc1 | -18 | . | . | 1.6% | . | 0.0

Part of the list above, limited to PINK1 expr mod.
compound	PINK1 expr mod
CC(=O)Nc1ccc(NC(=O)C2CC(=O)N=C(N)S2)cc1 (stereo not given)	2.1%
CCn1ncc(C(=O)Nc2ccc(F)cc2)c1C	1.6%

(cont.)
SMILES | TRPML1 blocker | D2 PAM | Six1-Eya2 blk | PINK1 expr mod | D2 agonist | TRPML1 ag
CC(=O)N1CCc2c(sc3c2c(=O)n(Cc2ccccc2)c(=O)n3Cc2ccc(Cl)cc2)C1 | -25 | . | . | 0.0% | . | -0.7
CC1c2nc3ccccc3n2C(CC(=O)NC2CC2)C(=O)N1Cc1ccccc1 (stereo not given) | 7 | -1 | 9 | 1.4% | -2.2 | 0.0
CCCCC(=O)N(C)c1c(CC)nc2c(OCC(=O)c3ccc(Cl)cc3Cl)cccn12 | . | -11 | -3 | ? | -1.7 | -0.5
O=C1CCCC2=C1C(c1ccccn1)Nc1ccc(C(=O)c3ccccc3)cc1N2 (stereo not given) | -17 | -10 | 1 | 2.9% | -2.3 | -0.8
Cc1ccc(C(=O)NC(=S)Nc2ccc(N3CCN(C(=O)c4ccco4)CC3)cc2)cc1 | -5 | -18 | ? | 2.4% | 0.4 | 0.4
CCN(C[C@H]1N[C@@](CC)(C(=O)OC)[C@H]2C(=O)N(Cc3ccccc3)C(=O)[C@@H]12)C(=O)C1CCCCC1 | -18 | 4 | 0 | -0.1% | 3.6 | -1.1
COc1cc(Nc2nc(-c3ccccc3)c3cc(C)ccc3n2)cc(OC)c1OC | -5 | -8 | ? | 6.1% | -1.3 | 0.5
C[C@@H]1CCCCO[C@@H](CN(C)C(=O)Nc2ccccc2)[C@@H](C)CN([C@H](C)CO)C(=O)c2cc(N(C)C)ccc2O1 | -1 | 2 | -11 | 1.3% | -2.2 | -0.2
COc1ccc(-c2cc(-c3n[nH]c(=S)n3-c3cccc4ccccc34)[nH]n2)cc1 | 4 | 0 | -8 | -0.9% | -1.9 | 1.6
CCOC(=O)C1CCN(C(=O)c2ccc(OCC)c(OCC)c2)CC1 | 15 | 1 | 4 | -0.7% | -3.0 | 1.7
O=C(Cc1coc(-c2ccc(F)cc2)n1)N1CCOCC1 | 12 | -8 | -1 | 4.4% | -5.3 | 0.4
O=C(Nc1cccc(Cl)c1)C1C2C=CC3(O2)C1C(=O)N(CCCN1CCCCC1)C3C(=O)NC1CCCCC1 (stereo not given) | -6 | -10 | 9 | 2.3% | 0.4 | -0.3
O=C(CN1CC(c2ccccc2)CC1=O)OCc1ccccc1F (stereo not given) | 64 | -7 | 2 | -0.1%[38.3 µM] | -2.6 | 0.4
COc1ccc(NC(=O)CN(C)C(=O)c2ccc(-c3ccccc3Cl)o2)cc1 | 1 | -3 | -8 | 1.6% | -2.6 | -0.6
Cn1c(SCC(=O)N2CCCC2)nc2ccccc21 | 5 | -13 | -1 | 0.7% | 0.1 | -0.8
COc1ccc(CCNC(=O)COc2ccc3c(c2)OCO3)cc1 | 16 | 0 | 1 | -0.6% | -6.4 | -0.2
CC(C)=CCc1c([C@@H]2CCc3ccc(O)cc3O2)cc2c(c1O)OC(C)(C)C=C2 | . | 18 | -5 | 8.6% | 11 | .
COc1cccc(CNc2ncn[nH]2)c1OCc1ccc(F)cc1 | 7 | -3 | 5 | 1.3% | -3.1 | 1.1
COC(=O)c1cn(CC(=O)NCc2ccco2)c2ccccc12 | -2 | -8 | 0 | -0.6% | -4.7 | -1.1
C=CCN(c1ccccc1Cl)S(=O)(=O)c1cccc(C(=O)OCC(=O)N(C)C2CCS(=O)(=O)C2)c1 (stereo not given) | -18 | 0 | -1 | -0.3% | -1.2 | 0.5
CC1(C)CC(=O)c2c(nn(-c3ccccc3)c2-c2ccncc2)C1 | 1 | -7 | -1 | 8.3%[38.3 µM] | -3.5 | -0.9
CCOP(=O)(NC(c1ccccc1)c1nc2ccccc2[nH]c1=O)OCC (stereo not given) | 16 | -8 | 7 | 1.3% | 0.0 | 0.3
CCCCN(CCCC)CC1OCc2ccccc2CO1 | -4 | -12 | 1 | 4µM* | -1.6 | 0.2
CC(C)CN(C(=O)c1cc([N+](=O)[O-])cc([N+](=O)[O-])c1)C1CCS(=O)(=O)C1 (stereo not given) | 2 | 10 | 0 | 0.7% | 9.3 | -0.2
O=C(O)CCC(=O)Nc1ccccc1C(=O)N1CCN(c2ccc(Cl)cc2)CC1 | -12 | 0 | 13 | 2.2% | 2.3 | -0.9
O=C(/C=C/c1cccs1)c1cc(Cl)ccc1OC(=O)N1CCOCC1 | 7 | 2 | 3 | 0.8% | -3.3 | 0.2
CN(C)CCNC(=O)c1ccc(-n2c(-c3ccccc3)cc3c2CCCCC3)cc1 | 4 | . | . | 0.1% | . | 0.0
CCOc1ccc(NC(=O)Cn2nnc(C(=O)NCc3ccc(OC)cc3)c2N)cc1 | -8 | -4 | 2 | 2.6% | -4.7 | -0.3
C=CCNCCCOc1ccc(Cl)cc1Br | 22 | -31 | 4 | 8.3% | -3.6 | -1.0
CN1C(=O)CC(N2CCN(CC(=O)N3CCCC3)CC2)C1=O (stereo not given) | 9 | -6 | 5 | -0.3% | -1.6 | -0.6
O=C(Nc1ccccc1)/C(=C/c1ccccc1)c1ccccc1 | -17 | -13 | 9 | 0.2% | -2.7 | 1.1
Cc1c(C(=O)NNC(=O)c2csc(N3CCOCC3)n2)oc2ccc(Br)cc12 | -4 | -6 | -18 | -0.3% | 0.3 | -0.4
COc1ccccc1C(=O)C(O)c1ccccc1OC (stereo not given) | -14 | 9 | 5 | -2.7% | -1.5 | -0.6
O=C(Nc1ccc2c(c1)OCCO2)C(c1cc2ccccc2o1)N1CCC(Cc2ccccc2)CC1 (stereo not given) | . | -3 | -12 | 0.6% | -4.7 | -0.1
COc1ccc(C(=O)NCCc2cc3ccc(C)c(C)c3[nH]c2=O)cc1OC | 6 | 0 | 6 | 2.3% | -1.8 | 0.3
C/C(=C\C(=O)c1ccc(Cl)cc1Cl)N(C)C | 15 | -6 | 2 | -0.5% | -0.1 | 0.1
O=C(O)CCc1ccc(-c2cccs2)n1NC(=O)c1ccco1 | -21 | -19 | 8 | 1.7% | -3.0 | -0.3
COc1ccc(CNS(=O)(=O)c2ccc3c(c2)N(C(C)=O)CCO3)cc1 | 16 | -21 | 4 | 1.9% | -2.4 | -0.2
Cc1ccc(S(=O)(=O)NNC(=O)c2cccc(O)c2)cc1 | -8 | 2 | 5 | 2.0% | 3.9 | 0.7
NC(=O)c1ccc(NC(=O)c2cncn2-c2ccccc2)cc1 | 9 | 1 | 5 | -1.5% | -15 | 0.0
C=CCOc1ccc(CNc2nccs2)cc1OC | -4 | -9 | -3 | 0.1% | -2.1 | 0.4
CN(C)S(=O)(=O)c1ccc(NC(=O)N2CCN(c3ccccc3)CC2)cc1 | 15 | -6 | 0 | -0.4% | -7.3 | 0.3

Whole records, quoted from the list:
`C/C(=C\C(=O)c1ccc(Cl)cc1Cl)N(C)C` as listed: TRPML1 blocker = 15; D2 PAM = -6; Six1-Eya2 blk = 2; PINK1 expr mod = -0.5%; D2 agonist = -0.1; TRPML1 ag = 0.1
`COc1ccc(C(=O)NCCc2cc3ccc(C)c(C)c3[nH]c2=O)cc1OC` as listed: TRPML1 blocker = 6; D2 PAM = 0; Six1-Eya2 blk = 6; PINK1 expr mod = 2.3%; D2 agonist = -1.8; TRPML1 ag = 0.3

Compounds as they come; any-hit rate near 1%.
